# HCMV UL50-53 inh: cytomegalovirus nuclear egress complex inhibition; 0.15% of 190,000 active; AID 1918969; inhibition, % (concentration not given with the values); HTRF UL50-UL53 interaction, normalized percent inhibition;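 active = both replicates at 50% or more, plus weaker picks with an unusually low signal ratio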;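 note: stock transfer was 100 nL into about 20 µL; 0% = negative control wells and 100% = wells with untagged competitor protein; inactives centre near -12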
# GIV Gai3 FP: blocks GIV peptide binding to rat Galpha-i3 | P08753 | Galpha-i3/FITC-GIV peptide fluorescence polarization, 90 min; active compounds read low; scaled: aluminum fluoride 0%, vehicle 100% | percent of control (FP), % (concentration not given with the values) | 0.42% of 210,000 active;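 active = replicate mean at 85% of control or lower, very high polarization wells dropped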;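 note: wells of about 15 µL received 100 nL stock; the first replicate is given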
# Target sequence (P08753 whole entry, looked up): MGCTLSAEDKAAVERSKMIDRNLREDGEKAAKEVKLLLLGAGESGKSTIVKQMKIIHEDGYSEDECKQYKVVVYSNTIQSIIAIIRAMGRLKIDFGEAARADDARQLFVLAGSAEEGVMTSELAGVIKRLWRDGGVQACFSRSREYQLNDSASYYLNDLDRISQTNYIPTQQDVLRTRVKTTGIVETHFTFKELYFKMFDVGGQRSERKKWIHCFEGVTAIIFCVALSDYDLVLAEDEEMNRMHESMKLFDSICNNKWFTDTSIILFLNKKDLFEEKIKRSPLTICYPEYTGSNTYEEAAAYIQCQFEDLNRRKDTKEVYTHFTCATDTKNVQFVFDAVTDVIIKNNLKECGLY
# Sa growth 42C: blocks Staphylococcus aureus growth; S. aureus RN4220 growth, OD600, 20 h, 42 °C; active compounds read low; relative growth, % (concentration not given with the values); 0.53% of 170,000 active; AID 720641;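 active = growth at 42 °C up to 50% and 20 or more points under that at 30 °C, or under 10% at both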;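 note: 300 nL library stock went into each well; scaled to the means of positive and negative controls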
# Sa growth 42C second temp: also measured in Sa growth 42C; calls as there; relative growth, %; measured here: growth at 30 °C;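 optical density after 20 h as mean of two plates; 100% = untreated growth and lower means inhibition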
# Numbers without * were called inactive; / = not tested or not shown; & = joins results of further samples.
SMILES,HCMV UL50-53 inh,GIV Gai3 FP,Sa growth 42C,Sa growth 42C second temp
COc1ccc(CCNC(=O)Cc2ccc(NC(=O)N3CCSc4ncccc43)cc2)cc1OC,/,103.8,77.3,91.7
CNC(=O)c1cccc2cccc(Sc3ccccc3C(=O)OC)c12,-16.7,104.3,102.7,86.5
CCCC(=O)Nc1sc(C(=O)Nc2cccc(C)c2C)c(C)c1C#N,-4.1,/,93.7,88.4
CC(=O)Nc1cccc(N(C)S(C)(=O)=O)c1,17.4,115.4,100.4,95.7
Cc1ccc(-c2cc(C(=O)N3CCN(C)CC3)no2)cc1C,-0.2,101.7,/,/
FC(F)(F)c1cccc(-c2nnnn2-c2cccc(Cl)c2)c1,-5.3,99.8,/,/
CCNc1nc(NC(C)C)nc(SCCOc2ccccc2)n1,-8.9,99.4,/,/
COc1ccc(Nc2cc(C(=O)NCCCN3CCOCC3)c3ccccc3n2)cc1OC,-30.8&-18.7,107.1&99.0,101.2,88.0
COc1ccc(CCNC(=O)Cn2ncc3c(C)n(Cc4ccccc4F)c(C)c3c2=O)cc1OC,-17.0,105.5,103.4,86.2
Nc1c(N(Cc2ccco2)C(=O)c2ccccc2)c(=O)[nH]c(=O)n1Cc1ccccc1,-13.1,/,65.1,86.4
O=c1[nH]ncc(N2CCCCC2)c1Cl,-60.3&-35.0,105.0,98.5,87.9
COc1ccc(CCNC(=O)CCn2c(SCC#N)nc3ccccc3c2=O)cc1OC,/,97.8,100.2,88.6
CCC(C(=O)NCCCN(CC)CC)N1C(=O)CCCc2ccccc21 (stereo not given),-7.9,103.1,/,/
CC(Cc1cccs1)NC(=O)Nc1ccccc1 (stereo not given),27.7,/,87.1,96.8
COc1ccc(NC(=O)C2CCN(S(=O)(=O)c3c(C)noc3/C=C/c3cccs3)CC2)cc1Cl,-17.4,103.7,113.5,91.1

# Compound profiles, as listed above.
# Record of CC(=O)Nc1cccc(N(C)S(C)(=O)=O)c1 : HCMV UL50-53 inh: 17.4; GIV Gai3 FP: 115.4; Sa growth 42C: 100.4; Sa growth 42C second temp: 95.7
# Record of CCNc1nc(NC(C)C)nc(SCCOc2ccccc2)n1 : HCMV UL50-53 inh: -8.9; GIV Gai3 FP: 99.4; Sa growth 42C: /; Sa growth 42C second temp: /

# (continued)
SMILES,HCMV UL50-53 inh,GIV Gai3 FP,Sa growth 42C,Sa growth 42C second temp
Cc1cc(C)cc(-n2nnc(C(=O)OCc3ccc(Cl)cc3)c2C)c1,-20.0,100.3,/,/
O=C(NC1CCCC1)c1ccc(COc2cc(Cl)ccc2Cl)o1,-17.1,/,60.4,67.8
Cc1nc(C(N)=NC(=O)c2ccccc2)cs1,-6.1,99.5,84.5,51.5
COc1cc(OC)cc(C(=O)Nc2cccc3nsnc23)c1,/,101.7,110.7,74.7
N#Cc1cccc(NC(=O)c2coc(=O)c3ccccc23)c1,-5.1,99.9,97.9,100.8
CCc1ccc(-n2nc(CO)c(C(=O)NCc3cccnc3)n2)cc1,-4.8,103.4,102.9,94.1
CCc1ccc(CNC(=O)C(CC)n2ccc3cc(S(=O)(=O)N4CCCCC4)ccc32)cc1 (stereo not given),/,104.1,92.0,90.3
O=C(Cn1c(SCCOc2ccccc2)nc2ccccc21)N1CCOCC1,-2.2,100.0,100.2,88.1
COc1ccccc1C(=O)n1nc(-c2ccccc2)nc1NCc1ccc(Cl)cc1,7.8,98.6,95.5,87.6
CC(=O)c1ccc(NC(=O)COc2ccccc2-c2nc(-c3ccc(C)cc3)no2)cc1,-18.2,99.8,103.6,83.8
O=C(Nc1ccc(N2CCCCC2)cc1)c1ccncc1,/,99.2,95.8,82.3
COc1ccc(CCNC(=O)C2CCCN(c3nc4c(C)cc(C)cc4s3)C2)cc1OC (stereo not given),-29.2,103.0,130.0,91.5
COCCCNC(=O)c1c(-c2ccccc2)c(-c2ccccc2)nn(C)c1=O,-11.7,95.0,97.2,89.1
O=c1cc(CSc2n[nH]c(-c3ccccc3)n2)c2ccc(O)cc2o1,0.7,104.9,107.0,66.4
C[C@@H](C(=O)N1CCN(c2ccccc2)CC1)N1C(=O)C2CC=CCC2C1=O (stereo not given in full),-11.8,/,80.9,91.1
COc1ccc(CCNC(=S)N2CCCC(C(F)(F)F)C2)cc1 (stereo not given),-23.4,/,107.5,86.7
CC(=O)OC1C=C2C(Cl)=C[C@@H]3[C@H](CC[C@@]4(C)[C@H]3CC[C@]4(OC(C)=O)C(C)=O)[C@@]2(C)CC1 (stereo not given in full),-55.1,107.0,92.6,83.8
COc1cc(C2CC(=O)N(Cc3ccc(F)cc3)c3ccccc3S2)cc(OC)c1OC (stereo not given),-22.7,103.9,105.7,81.0
CCOc1ccccc1NC(=O)C1CCCN1C(=O)c1cccs1 (stereo not given),0.7,/,100.9,89.0
Nc1sc(=S)nc2ccccc12,-69.6,/,55.3,53.7
O=C(CNC(c1ccccc1)c1ccc(Cl)cc1)N1CCNC1=O (stereo not given),15.2,/,96.0,96.4
O=C(CCc1ccccc1)NC1CC(=O)N(c2ccccc2)C1 (stereo not given),/,101.9,102.8,90.3
COC(=O)c1c(C)oc2ccc(O)c(CN3CCCC(C)C3)c12 (stereo not given),-21.4,99.1,/,/
COc1cccc(-c2nn(C)c3sc(C(=O)NCCc4ccc(OC)c(OC)c4)cc23)c1,-4.9,97.8,105.4,77.2
Cn1nc(C(F)(F)F)cc1C(=O)N1CCCC1c1ccc(Cl)cc1 (stereo not given),-15.0,102.7,/,/
O=c1[nH]c(CN(CCO)Cc2nc3sccc3c(=O)[nH]2)nc2sccc12,-8.4,/,87.1,96.5
CCOc1ccccc1NC(=O)c1cc2c(CO)cnc(C)c2oc1=O,5.3,111.0,102.0,97.3
O=C(O)c1cc(N2CCN(CC(=O)N3CCOCC3)CC2)ccc1NC(=O)C1CCCC1,-21.3,98.2,/,/
Cc1ccc(-c2nnc(CCC(=O)NCc3ccccc3CN3CCCC3)o2)cc1,-6.8,/,80.1,85.3
Cc1ccc(S(=O)(=O)c2c(C)cc(C)n(CC(=O)Nc3oncc3-c3ccccc3)c2=O)cc1,-25.5,96.5,/,/
COc1ccccc1C(=O)NC1=NC(c2ccc(Br)cc2)CC(=O)N1 (stereo not given),-9.4,100.4,76.5,53.9
Cc1ccc(CNC(=O)NC2COc3ccccc3C2)cc1 (stereo not given),/,97.2,102.4,88.6
CCCc1cnc2c(c1SCC(=O)NCc1ccc(C)cc1)c(=O)n(C)c(=O)n2C,/,102.2,134.9,89.9
COc1ccc2[nH]c3c(c2c1)CCNC3c1ccc(C)cc1 (stereo not given),-31.4,102.2,/,/
CCc1cc(C(=O)OC)c(NC(=O)CN2CCN(c3ccccc3)CC2)s1,17.7,107.5,105.7,100.2
Cc1cccc(CCNC(=O)[C@H](Cc2ccccc2)N2Cc3ccccc3C2=O)c1,/,98.9,111.2,85.7
COC(=O)CSc1nc(-c2ccccc2)cc(C(F)(F)F)n1,-14.7,105.1,114.4,97.2
CCOC(=O)c1c(C)[nH]c(C(=O)CN2CCCCC2)c1C,1.1,/,116.6,94.3
COc1ccccc1C(=O)CSc1cccc[n+]1[O-],-29.8,/,110.8,79.2
O=C(Nc1nnc(-c2cccc([N+](=O)[O-])c2)s1)c1ccc(S(=O)(=O)N2CCCCC2)cc1,-8.6,103.9,/,/
COc1ccc(C2C(C#N)=C(N)Oc3cc4c(cc32)OCO4)cc1 (stereo not given),-8.2,102.5,118.4,68.8
Cc1ccccc1NC(=O)C1(N(CC(C)C)C(=O)Cn2nnnc2N)CCCCC1,-10.2,97.0,85.6,89.5
O=C(Nc1ccc(Br)cc1)C1CCN(c2ccnc(-c3ccc(F)cc3)n2)CC1,-16.5,102.3,/,/
Cc1c(C(N)=O)nnn1-c1ccc(OCc2ccccc2)cc1,-37.5,106.4,/,/
Cc1ccc(NC(=O)c2nsc(Cl)c2Cl)cc1,-2.4,96.5,100.2,104.6
CC(NS(=O)(=O)c1ccccc1)C(=O)NCc1ccc(CN2CCCC2)cc1 (stereo not given),-26.2,/,98.9,79.1
O=C(c1ccco1)N1CCN(C2=Nc3cccc4cccc2c34)CC1,-99.5,/,65.5,75.3
BrCC1(c2ccccc2)OCCO1,-3.3,101.8,/,/
O=c1[nH]cnc2c1sc1nc(-c3ccco3)c3c(c12)CCCC3,-12.6,102.1,97.6,86.6
Cc1ccc(S(=O)(=O)Nc2cccc(-c3ccc4nnc(C)n4n3)c2)s1,-35.7,106.4,92.2,85.2
CCNC(=O)c1cccc(NC(=O)N2CCCCc3ccccc32)c1,3.7,107.9,/,/
Cc1nn(C)c2nc(OCc3cccc(Br)c3)cc(C(F)(F)F)c12,-0.1,100.6,/,/
COc1ccc(OC)c(NC(=O)c2cc(S(=O)(=O)N3CCC(C)CC3)cn2C)c1,-6.1,107.0,/,/
Cc1ccc(OCC(=O)Nc2nc3ccccc3s2)c(C)c1,12.4,/,108.3,101.9
CCCCN(C)S(=O)(=O)c1cc(-c2n[nH]c(=O)c3ccccc23)ccc1C,-16.4,98.2,79.7,66.0
Cc1cc(N2CCC(C)CC2)nc2ccc(NC(=O)Cc3c(F)cccc3Cl)cc12,3.2,100.6,93.7,100.6
CCOC(=O)c1sc2nc(C(C)Sc3nnc(C)s3)[nH]c(=O)c2c1C (stereo not given),-7.1,/,108.8,89.1
CN/N=C/c1ncc(C(F)(F)F)cc1Cl,-37.2,98.5,89.0,89.4
Cc1ccc(Oc2ncccc2NC(=O)CCCC(=O)O)c2c1CCC2,-11.7,100.1,104.9,88.4
O=S(=O)(Cc1ccc(Cl)cc1Cl)C1CCCCC1O (stereo not given),-13.2,99.6,100.3,91.8

# Further structures follow:
SMILES,HCMV UL50-53 inh,GIV Gai3 FP,Sa growth 42C,Sa growth 42C second temp
COC(=O)c1sccc1N1C(=O)C=CC1=O,-9.5,109.5,111.2,76.8
CCN(Cc1ccccc1)S(=O)(=O)c1ccc(F)c(C(=O)Nc2cc(C(F)(F)F)ccc2Cl)c1,/,99.0,118.0,97.6
COc1ccc(C2=NN(C(C)=O)CC2)cc1,-29.9,101.7,106.8,102.4
Cc1cc(C)n(CC(O)CON=C2c3ccccc3-c3ccccc32)n1 (stereo not given),-32.2,102.4,89.1,53.4
c1ccc2c(c1)CCCN2c1nc2ccccc2n2cnnc12,-14.1,126.0,113.5,75.6
Cc1ccc2[nH]c(=O)c(CN(C)S(C)(=O)=O)cc2c1,-4.7,105.5,102.0,86.5
Cc1cccc(Nc2nc(-c3sc(C)nc3C)cs2)c1,2.1,/,90.6,89.3
Cc1nn(CC(=O)N2CCN(c3ccccc3)CC2)c(=O)c2cc3cc(F)ccc3n12,-21.2,104.8,111.7,83.3
CC(=O)c1cnc2c(C(=O)O)cnn2c1C,-8.7,95.4,/,/
CCSC1=NC2(CCN(C(=O)NC3CCCCC3)CC2)N=C1c1ccc(Cl)cc1,/,108.8,93.5,89.2
CCCOc1ccc(-c2nn(-c3ccccc3)cc2C2NC(=O)NC(C)=C2C(=O)OC)cc1 (stereo not given),-30.3,110.4,115.0,92.8
Cc1cc2nc(-c3ccc(N=Cc4cccc(C)c4O)cc3)oc2cc1C,/,99.5,127.2,83.8
CCOC(=O)C1CCCN(c2nc3c(S(=O)(=O)c4ccc(C)c(C)c4)nnn3c3ccc(Cl)cc23)C1 (stereo not given),-11.3,103.7,113.2,93.0
CCn1c(C(=O)N2CCC(C(=O)NCc3ccc(Cl)cc3)CC2)cc2occc21,/,110.2,97.8,87.4
CCCC1(C(=O)OC)NC(c2ccc(OC)c(OC)c2)C2C(=O)N(c3ccc4c(c3)OCO4)C(=O)C21 (stereo not given),-7.3,97.7,109.4,90.8
Cc1ccc(Cl)cc1N1CCN(C(=O)Cn2ncc3c4ccccc4n(C)c3c2=O)CC1,-10.9,101.4,105.5,87.6
Cc1ccc(C)n1-c1ccc(/C=C(/C#N)S(=O)(=O)C(C)(C)C)cc1,-1.7,105.5,93.3,98.2
O=C1CCCc2ccccc2N1,-14.2,94.0,92.7,88.8
COc1ccc(C)cc1NC(=O)C(Sc1nnc(C2CC2)n1C)c1ccccc1 (stereo not given),-6.0,/,99.8,101.3

# Gathered by group: the compounds so far with an NH in an aromatic ring
SMILES,HCMV UL50-53 inh,GIV Gai3 FP,Sa growth 42C,Sa growth 42C second temp
Nc1c(N(Cc2ccco2)C(=O)c2ccccc2)c(=O)[nH]c(=O)n1Cc1ccccc1,-13.1,/,65.1,86.4
O=c1[nH]ncc(N2CCCCC2)c1Cl,-60.3&-35.0,105.0,98.5,87.9
O=c1cc(CSc2n[nH]c(-c3ccccc3)n2)c2ccc(O)cc2o1,0.7,104.9,107.0,66.4
O=c1[nH]c(CN(CCO)Cc2nc3sccc3c(=O)[nH]2)nc2sccc12,-8.4,/,87.1,96.5
COc1ccc2[nH]c3c(c2c1)CCNC3c1ccc(C)cc1 (stereo not given),-31.4,102.2,/,/
CCOC(=O)c1c(C)[nH]c(C(=O)CN2CCCCC2)c1C,1.1,/,116.6,94.3
O=c1[nH]cnc2c1sc1nc(-c3ccco3)c3c(c12)CCCC3,-12.6,102.1,97.6,86.6
CCCCN(C)S(=O)(=O)c1cc(-c2n[nH]c(=O)c3ccccc23)ccc1C,-16.4,98.2,79.7,66.0
CCOC(=O)c1sc2nc(C(C)Sc3nnc(C)s3)[nH]c(=O)c2c1C (stereo not given),-7.1,/,108.8,89.1
Cc1ccc2[nH]c(=O)c(CN(C)S(C)(=O)=O)cc2c1,-4.7,105.5,102.0,86.5
